Autofluor counter: compound fluorescence in toxin protease inhibitor counterscreen | compound autofluorescence counterscreen, microsphere flow cytometry; hits give high values | AID 624483 | actives 3.1% (n = 360,000) | fluorescence intensity (test concentration not listed);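 active means at least 3 SD above the mean of all compounds, about 16000 in these data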;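 further: 100 nL of 1 mM stock went into each well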
* hit, by the source's call. A portion of the library (hit frequency here may not be typical).

SMILES	Autofluor counter
Nc1nc(N)c2c(ccc3c2ccn3Cc2cccc([N+](=O)[O-])c2)n1	5513
Cc1cccnc1C(NC(=O)C1CCN(Cc2ccc(Cl)cc2)CC1)c1ccc(F)cc1 (stereo unspecified)	4129
CCCCCCN1CCN(C2CN(Cc3ccc(C)cc3)S(=O)(=O)C2)CC1 (stereo unspecified)	5433
CC(C)=CCC[C@H](C)CC1Cc2[nH]c(=S)[nH]c(=O)c2C(c2ccc(F)cc2)O1 (stereo partly specified)	5948
COc1ccc(CN2C(=O)C(CC(=O)NCCCN(C)C)CC(C(=O)N3CCOCC3)=C2C)cc1 (stereo unspecified)	5638
CC1=C(C(=O)N(C(C)C)C(C)C)CC(CC(=O)NCC2CCCCC2)C(=O)N1Cc1ccc(F)cc1 (stereo unspecified)	5699
CC1(C(=O)NS(=O)(=O)Cc2ccccc2)CCN1C(=O)c1ccc(C2CCCCC2)cc1 (stereo unspecified)	4355
COc1ccc(-c2ccc(C(=O)Nc3ccc(Cl)cc3)c3occc23)c(C)c1	3894
COc1ccc(-c2cc(NC=O)c3ncc(-c4ccc(OC)c(OC)c4)n3c2)c(OC)c1	3999
CN1CCN(c2ncnc3c2ncn3[C@H]2CN(Cc3ccccc3)C[C@@H](CO)O2)CC1	3865
Cc1cn([C@H]2C[C@H](O)[C@@H](CCC(=O)NCC(c3ccccc3)c3ccccc3)O2)c(=O)[nH]c1=O	6226
CCc1nc2ccc(C(=O)N(C)Cc3ccco3)cn2c1N(C)Cc1ccc(OC)cc1	3791
O=C1c2ccccc2CCC12OC2c1ccc([N+](=O)[O-])cc1 (stereo unspecified)	3748
COc1cc2cc(C(=O)NCCc3c[nH]c4ccccc34)c(N)nc2cc1OC	4863
CNc1ncnc2c1ncn2[C@H]1CN(Cc2ccc(Cl)cc2)C[C@@H](CO)O1	3696
COc1ccc([C@H]2C[C@H](O)[C@@H](n3cc(C4CC4)nn3)CN2C(=O)c2cccs2)cc1	3529
CCCNC(=O)C1(C)CCCN(Cc2noc(-c3c(C)noc3C)n2)C1 (stereo unspecified)	3673
Cc1ccc(F)c(S(=O)(=O)NC(=O)C2(C)CCN2C(=O)Cc2ccc(Cl)cc2Cl)c1 (stereo unspecified)	3736
O=C(Nc1ccc(F)c(Cl)c1)c1cc(C2CCCN(C(=O)C3CC3)C2)on1 (stereo unspecified)	3501
COc1ccc(CNC(=O)c2ccc3nc(C)c(N(C)Cc4ccc(NC(C)=O)cc4)n3c2)cc1	3935
Nc1[nH]c(C(=O)c2ccccc2)c(-c2cccc3ccccc23)c1C(=O)NCc1ccccc1	4072
O=C(Nc1cccc(C(F)(F)F)c1)c1ccc(-c2ccc(F)c(F)c2)c2ccoc12	2813
COc1ccccc1CCNC(=O)CSCC(=O)Nc1ccccc1F	2802
CCN(CC(=O)Nc1ccc(OC)cc1)C(=O)C1CC(=O)N(Cc2ccccc2)C1 (stereo unspecified)	3488
C[C@H]1CN([C@@H](C)CO)C(=O)c2cc(C#CC3(O)CCCC3)cnc2O[C@H]1CN(C)C(=O)C1CC1	4000
O=C(C[C@H]1C[C@@H]2c3cc(NS(=O)(=O)c4ccccc4)ccc3O[C@@H]2[C@H](CO)O1)NC1CCCC1	3798
CCN(CC(=O)Nc1ccc(OC)cc1)CC(=O)Nc1cccc(S(=O)(=O)N2CCOCC2)c1	3802
CCCCN(C(=O)COc1ccc(F)cc1)c1c(N)n(CC(C)C)c(=O)[nH]c1=O	4234
O=C(NCc1ccncc1)C1Cc2c(-c3ccc(Cl)cc3)ccnc2O1 (stereo unspecified)	3663
c1ccc(-c2nn3c(-c4ccccc4)nnc3o2)cc1	3076
COc1cc(NC(=O)CCc2c(C)noc2C)c(C(=O)O)cc1OC	3370
CC(=O)Nc1ccc(OCCCN2CCC(C(O)(c3ccccc3)c3ccccc3)CC2)cc1	5962
CCOC(=O)[C@]12CCC=C1N(Cc1ccc(Cl)cc1Cl)C(=O)[C@H](CC(=O)NCc1ccc(C)o1)C2	4226
O=C(Nc1ccccc1F)c1nc[nH]c1C(=O)NCc1ccccc1	3468
COc1ccc(NC(=O)c2cc(-c3cc(C)cs3)[nH]n2)cc1OC	3938
NC(c1ccccc1)c1csc(Nc2ccc(C(=O)NCCO)cc2)n1 (stereo unspecified)	3391
CCCCn1nnnc1C(c1ccccc1)N1CCN(c2ccc(C(F)(F)F)cn2)CC1 (stereo unspecified)	5608
O=C(NN=Cc1ccc2c(c1)CCC2)c1ccccc1[N+](=O)[O-]	3812
OC[C@@H]1CN(Cc2ccc(-c3ccccc3)cc2)C[C@H](n2cnc3c(NCc4ccco4)ncnc32)O1	2891
COc1cc(-c2cnc3c(NC=O)cc(-c4ccc(S(C)(=O)=O)cc4)cn23)cc(OC)c1OC	3800
COC(=O)c1ccccc1S(=O)(=O)N1CCC(C(=O)NCc2ccccn2)CC1	3507
CC(Sc1nc2ncc(Cl)cc2[nH]1)C(=O)Nc1ccccc1[N+](=O)[O-] (stereo unspecified)	2944
O=C(CC1c2cc(F)ccc2C=C(c2ccsc2)N1c1ccc(C#CCCO)cc1)c1ccco1 (stereo unspecified)	5782
CSc1cccc(NC(=O)C2CC(=O)N(c3ccc4c(c3)OCCO4)C2)c1 (stereo unspecified)	3033
CN(Cc1ccccc1)C(CNS(=O)(=O)c1ccccc1)c1ccccc1 (stereo unspecified)	3034
O=c1[nH]c2ccccc2n1C1CCN(C(c2cc3ccccc3o2)c2nnnn2-c2ccc3c(c2)OCCO3)CC1 (stereo unspecified)	5979
CNc1cc(C(=O)Nc2cccc(OCc3ccccc3)c2)ncn1	3722
C=CCNc1nc(NCCNC(C)=O)c2sc(-c3ccccc3)cc2n1	3586
CN(C(=O)COC(=O)c1cccs1)c1ccccc1	3502
COc1ccc(CCNC(=O)Nc2nnc([C@@H]3C[C@H](O)[C@@H](CO)O3)s2)cc1OC	2846

The list continues:
SMILES	Autofluor counter
CC1(C(=O)NS(=O)(=O)c2ccc(F)cc2F)CCN1C(=O)c1ccc(C2CCCCC2)cc1 (stereo unspecified)	2831
Cc1c(C(=O)N2CCC(C)(C(=O)NS(=O)(=O)C3CC3)C2)oc2ccccc12 (stereo unspecified)	2887
CCCNC(=O)c1cc(C2CCCN(C(=O)C3CCCCC3)C2)on1 (stereo unspecified)	3649
CC(=O)Nc1cc(-c2ccc(CO)cc2)cn2c(-c3ccc(F)cc3)cnc12	3414
COc1ccc(-c2cc(NC=O)c3ncc(-c4ccc(OC)c(OC)c4)n3c2)cc1	3978
COC(=O)[C@]12CCCCC=C1N(CCC1=CCCCC1)C(=O)[C@H](CC(=O)NCc1cccs1)C2	4217
COc1cc(C(O)c2nc(-c3cc4ccccc4o3)cs2)ccc1F (stereo unspecified)	4010
CNc1cc(-c2c(OC)cccc2OC)ncn1	3893
CCCNC(=O)C1(C)CCCN(C(=O)COCc2ccccc2)C1 (stereo unspecified)	3420
CCc1ccc2c(c1)NC(=O)C2(C)Cc1ccc(Cl)cc1 (stereo unspecified)	3448
O=C(NC1CCCCC1)c1cccc2c(-c3ccc(F)c(F)c3)coc12	3771
C[C@H](O)[C@@H]1C(=O)N2CCc3c([nH]c4ccccc34)[C@@H]2C[C@@H]1N(C)C(=O)Nc1cc(Cl)cc(Cl)c1	2986
COc1ccc(C2=Nc3ccccc3NC(=O)C2N(CCCn2ccnc2)C(=O)c2cccc(S(C)(=O)=O)c2)cc1 (stereo unspecified)	5302
CCc1nc2ccc(C(=O)NCCCn3ccnc3)cn2c1N(CC)Cc1cccc(Br)c1	3627
COCCN1C(=O)COc2ccccc2C1C(=O)NC(C)(C)C (stereo unspecified)	5080
CC1(C(=O)NS(=O)(=O)c2cccc(C#N)c2)CCN1C(=O)C/C=C/c1ccccc1 (stereo unspecified)	2990
CN(CCCn1ccc(N)nc1=O)Cc1ccco1	3853
c1ccc(-c2cc3nc(NCc4cccs4)ccn3n2)cc1	3766
Cc1ccc(C(=O)Nc2ccc(NC(=O)c3ccccc3Cl)c(C)c2)cc1	3920
CN(CC(=O)Nc1ccc(Cl)cc1)CC(=O)Nc1sc2c(c1C(N)=O)CCC2	3628
COc1ccc(CCn2nnc3ccccc3c2=O)cc1OC	3619
OC[C@@H]1CN(Cc2cccc(C(F)(F)F)c2)C[C@H](n2cnc3c(NC4CC4)ncnc32)O1	3481
CSc1nc(N)n2nc(C)cc2n1	6010
CN1CCn2cnc(C(=O)Nc3ccc(Cl)cc3)c2C1=O	2921
C(=C\c1ccccc1)/CN1CCN(C(c2ccccc2)c2nnnn2C2CCCCC2)CC1 (stereo unspecified)	6197
CSc1ccc(-c2cc3c(c4c2ccn4C)C2CCC3C2)cc1 (stereo unspecified)	6020
COc1ccc(NC(=O)C2(C)Cc3c(-c4cccc(C(N)=O)c4)ccnc3O2)cc1OC (stereo unspecified)	3858
Cc1ccc(NS(=O)(=O)c2ccc(-n3cccn3)cc2)cc1Cl	3921
CCOC(=O)C1CCCN(C(=O)c2ccccc2)CC1 (stereo unspecified)	2845
CCOC(=O)c1csc(CCNC(=O)c2ccccc2)n1	3670
CCCCN(C=O)c1c(CC)nc2c(OCCOc3ccccc3)cccn12	3697
COc1ccc(C(=O)c2[nH]c(N)c(C(=O)NCCc3c[nH]c4ccccc34)c2-c2ccc(C(F)(F)F)cc2)cc1	6362
N#Cc1ccc(C(=O)N2CCCCC2c2cc(C(=O)Nc3ccccc3Cl)no2)cc1 (stereo unspecified)	3793
CCOC(=O)C1(C)CCCN(C(=O)c2ccc3c(c2)CCO3)C1 (stereo unspecified)	3505
N#CCCC(C#N)(c1cccnc1)N1CCOCC1 (stereo unspecified)	3973
CC1=C(C(=O)N2CCOCC2)CC(CC(=O)NCCN2CCOCC2)C(=O)N1Cc1ccc(F)cc1 (stereo unspecified)	4038
CN1CCn2cnc(C(=O)NCC(=O)OC(C)(C)C)c2C1=O	3884
COCCNC(=S)N(C)[C@H]1C[C@H]2c3cc(N4CCN(C)CC4)ccc3CCN2C(=O)[C@H]1[C@H](C)O	3816
O=C(NCc1ccncc1)c1ccc2nc([C@@H]3O[C@H](CO)[C@H](O)[C@H](O)[C@H]3O)[nH]c2c1	2939
COc1ccc([C@H]2CC(=O)C[C@@H](CCn3cc(-c4ccncc4)nn3)O2)cc1	5964
COc1c(Cl)cc(C(=O)Nc2cccnc2)cc1Cl	3796
Cc1ccc(CN2CC(N3CCN(CC4CC4)CC3)CS2(=O)=O)cc1 (stereo unspecified)	5828
O=C(O)C1c2ccccc2Cc2ccccc21	3749
Cc1ccc([N+](=O)[O-])c(NC(=O)COC(=O)CCNS(=O)(=O)c2cccs2)c1C	3502
CCOC(=O)[C@]12Cc3cc(OC)ccc3[C@H]1N(C)C(=O)c1cc(OC)ccc12	5143
COc1ccc(C(=O)OCC(=O)N2c3ccccc3CC2C)cc1S(=O)(=O)N1CCOCC1 (stereo unspecified)	3887
Cc1[nH]c2ccccc2c1C(=O)C(=O)NCc1nnnn1-c1ccc(F)cc1	2958
O=C(NCc1cccs1)c1csc([C@H]2C[C@H](O)[C@@H](CO)O2)n1	3649
Cc1cc(C)c2c(=O)n3c(nc2c1)C(Cc1ccc(O)cc1)NC(=O)c1cccnc1-3 (stereo unspecified)	3452
COC(=O)[C@]12CCCCC=C1N(Cc1ccc(Cl)cc1Cl)C(=O)[C@H](CC(=O)N1CCN(C(=O)c3ccco3)CC1)C2	4279

Continued.
SMILES	Autofluor counter
CC(C)(C)c1cc(CNC(=O)C2CCC(=O)N(Cc3ccccc3F)C2)[nH]n1 (stereo unspecified)	3644
N#Cc1ccc(-c2nc3ccc(Cl)cn3c2Cc2cccc(F)c2)cc1	9223
Cc1ccc(NC(=O)CSc2nnc3n2CCCCC3)cc1S(=O)(=O)N1CCOCC1	3539
NC(=S)NN=Cc1c[nH]c2nccnc12	3426
C=CC1=CCN(S(=O)(=O)C(C)(C)C)[C@H]1CCO	3646
COc1ccc(CSC2=C(C#N)C(=O)NC3(CCCCC3)S2)cc1	3874
COC(=O)[C@]12CCCCC=C1N(Cc1ccccc1)C(=O)[C@H](CC(=O)NCc1cccs1)C2	4540
CC1(C)OC(=O)C2=C(C[C@@H](CCOCc3ccccc3)O[C@@H]2c2ccc(F)cc2)O1	4947
COc1ccc(NC(=O)C2CC(=O)N(c3ccc(C)cc3)C2)cc1S(=O)(=O)N1CCCCC1 (stereo unspecified)	3033
COCCCNc1c2c(nc3ccccc13)CCC2	3820
C[C@H](CO)N1C[C@H](C)[C@@H](CN(C)C(=O)c2ccc3c(c2)OCO3)Oc2cc(/C=C/c3ccccc3)ccc2S1(=O)=O	3441
CC(C)(O)C#Cc1ccc(N2C(c3ccsc3)=Cc3ccc(F)cc3C2c2c[nH]c3ccc(C#N)cc23)cc1 (stereo unspecified)	3981

Gathered by group: the compounds so far containing an NH in an aromatic ring.
SMILES	Autofluor counter
CC(C)=CCC[C@H](C)CC1Cc2[nH]c(=S)[nH]c(=O)c2C(c2ccc(F)cc2)O1 (stereo partly specified)	5948
Cc1cn([C@H]2C[C@H](O)[C@@H](CCC(=O)NCC(c3ccccc3)c3ccccc3)O2)c(=O)[nH]c1=O	6226
COc1cc2cc(C(=O)NCCc3c[nH]c4ccccc34)c(N)nc2cc1OC	4863
Nc1[nH]c(C(=O)c2ccccc2)c(-c2cccc3ccccc23)c1C(=O)NCc1ccccc1	4072
CCCCN(C(=O)COc1ccc(F)cc1)c1c(N)n(CC(C)C)c(=O)[nH]c1=O	4234
O=C(Nc1ccccc1F)c1nc[nH]c1C(=O)NCc1ccccc1	3468
COc1ccc(NC(=O)c2cc(-c3cc(C)cs3)[nH]n2)cc1OC	3938
CC(Sc1nc2ncc(Cl)cc2[nH]1)C(=O)Nc1ccccc1[N+](=O)[O-] (stereo unspecified)	2944
O=c1[nH]c2ccccc2n1C1CCN(C(c2cc3ccccc3o2)c2nnnn2-c2ccc3c(c2)OCCO3)CC1 (stereo unspecified)	5979
C[C@H](O)[C@@H]1C(=O)N2CCc3c([nH]c4ccccc34)[C@@H]2C[C@@H]1N(C)C(=O)Nc1cc(Cl)cc(Cl)c1	2986
COc1ccc(C(=O)c2[nH]c(N)c(C(=O)NCCc3c[nH]c4ccccc34)c2-c2ccc(C(F)(F)F)cc2)cc1	6362
O=C(NCc1ccncc1)c1ccc2nc([C@@H]3O[C@H](CO)[C@H](O)[C@H](O)[C@H]3O)[nH]c2c1	2939
Cc1[nH]c2ccccc2c1C(=O)C(=O)NCc1nnnn1-c1ccc(F)cc1	2958
CC(C)(C)c1cc(CNC(=O)C2CCC(=O)N(Cc3ccccc3F)C2)[nH]n1 (stereo unspecified)	3644
NC(=S)NN=Cc1c[nH]c2nccnc12	3426
CC(C)(O)C#Cc1ccc(N2C(c3ccsc3)=Cc3ccc(F)cc3C2c2c[nH]c3ccc(C#N)cc23)cc1 (stereo unspecified)	3981
